High-throughput results: PubChem, several laboratories
YopH PTP inh – YopH tyrosine phosphatase inhibitors, primary screen, biochemical, fluorescence Ex485/Em525; AID 898, 2007; YopH tyrosine phosphatase [Yersinia enterocolitica]; inhibition, %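 (about 10 µM by stock and volumes)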; 0.16% of 140,000 active;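 active = inhibition of 50% or more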;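 note: controls were vehicle for no effect and minimum signal wells for full effect; inactives centre near -20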
Mtb growth – M. tuberculosis H37Rv growth inhibitors, H37Rv strain (AID 1626); M. tuberculosis H37Rv growth inhibition; higher % means a stronger effect; inhibition, % at 10 µM; hits with a dose series show IC50 in µM; 0.95% of 220,000 active;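 active = confirmed in a dose series; inconclusive = inhibition above 80% but not taken into the dose series; inactive = below 80% or under 30% at every dose of the series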;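 note: bacteria incubated seven days before Alamar blue readout; 0% = bacteria only wells and 100% = bacteria with antibiotic wells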
RecA intein inh – Mtb RecA intein splicing inhibitors, primary screen, biochemical, fluorescence, HTS; inhibition, %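 (about 9 µM by stock and volumes)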; 0.75% of 290,000 active; Protein RecA (Mycobacterium tuberculosis (strain ATCC 25618 / H37Rv)), P9WHJ3; cell-free RecA intein splicing; in the data active = inhibition above about 30%; inconclusive = no clear call, values can overlap the other calls;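 note: 0% = vehicle wells and 100% = reference inhibitor control wells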
Target sequence (P9WHJ3 whole entry, looked up): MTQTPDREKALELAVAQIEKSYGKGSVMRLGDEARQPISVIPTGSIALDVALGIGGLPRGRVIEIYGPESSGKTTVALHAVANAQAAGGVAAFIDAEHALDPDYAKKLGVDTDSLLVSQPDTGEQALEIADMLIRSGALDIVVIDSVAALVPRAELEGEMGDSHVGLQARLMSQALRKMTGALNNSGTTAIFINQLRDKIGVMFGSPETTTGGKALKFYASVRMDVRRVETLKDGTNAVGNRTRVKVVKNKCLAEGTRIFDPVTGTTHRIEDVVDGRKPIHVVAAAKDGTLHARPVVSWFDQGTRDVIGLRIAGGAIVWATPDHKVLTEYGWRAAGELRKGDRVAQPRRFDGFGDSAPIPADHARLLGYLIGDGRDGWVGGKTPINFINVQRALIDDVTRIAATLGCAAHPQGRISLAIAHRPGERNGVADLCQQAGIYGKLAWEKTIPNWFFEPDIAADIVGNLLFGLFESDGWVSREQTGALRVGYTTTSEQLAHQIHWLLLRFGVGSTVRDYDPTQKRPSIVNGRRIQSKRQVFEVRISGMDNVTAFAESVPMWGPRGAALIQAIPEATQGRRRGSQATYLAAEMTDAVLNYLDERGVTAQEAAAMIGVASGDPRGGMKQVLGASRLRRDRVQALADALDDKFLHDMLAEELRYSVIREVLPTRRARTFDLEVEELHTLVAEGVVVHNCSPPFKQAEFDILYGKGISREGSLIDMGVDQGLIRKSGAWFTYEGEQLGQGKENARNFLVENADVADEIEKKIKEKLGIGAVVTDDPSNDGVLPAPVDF
Arbovirus anti – antivirals against arbovirus infection, primary screen, cell-based, full library, 10K replicate subset; arbovirus infection cell-based antiviral screen; inhibition, % at 10 µM; 0.37% of 200,000 active;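 active = inhibition from about 30%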;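 note: bluetongue infection of BSR cells; cell survival read as ATP light after 72 h; 0% = infected wells without compound and 100% = uninfected wells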
Mtb bLac sens – beta-lactam sensitization of Mtb H37Rv, H37Rv; inhibition, % at 25 µM; AID 434955, 2010; 0.27% of 330,000 active; M. tuberculosis H37Rv growth with meropenem, percent inhibition; hits of this screen are not shown here;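 active = about 74% or more and at least 40 points above the plate without the antibiotic, then above 30% in a dose series; inconclusive = first-round hits that could not be retested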;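 note: growth measured after seven days incubation then overnight dye step; 0% = bacteria only wells and 100% = bacteria with antibiotic; twin plates without the antibiotic show which effects depend on it; some results filed as inactive read as strong as hits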
* = called active by the depositor; ? = inconclusive; · = no result given.

canonical_smiles,RecA intein inh,YopH PTP inh,Mtb growth,Mtb bLac sens,Arbovirus anti
NC(=NCCc1c[nH]c2ccccc12)NS(=O)(=O)c1cc(F)ccc1F,1.8,-23,-2%,36,11
CCc1ccccc1N1CSC2=C(C#N)C(c3cc(OC)c(OC)cc3OC)CC(=O)N2C1 (stereo unspecified),4.0,39,-1%,1,-1
CCC(C)(C)NC(=O)C(c1ccccc1Cl)N(C(=O)CCC(=O)Nc1cc(C)on1)C1CC1 (stereo unspecified),-2.8,·,·,6,·
CCOC(=O)C1=C2SCC(=O)N2C(N)=C(C#N)C1,1.8,-105,4%,-6,8
COc1cc(CC(=O)OC2CCOC2=O)cc(OC)c1OC (stereo unspecified),-0.1,-44,-12%,-13,-1
O=C(Cc1ccc(F)cc1)OCn1nnc2ccccc2c1=O,0.7,·,·,66,·
COc1cccc(/C=N/n2c(N)c(S(=O)(=O)c3cccs3)c3nc4ccccc4nc32)c1OC,-1.9,-31,-8%,-3,-34
COc1ccccc1NC(=O)c1cccc(NC(=O)c2ccco2)c1,1.8,-39,3%,-14,-7
COC(=O)C1=C(C)N(CCCCCC(=O)O)C(=O)NC1c1ccccc1 (stereo unspecified),-4.5,·,-10%,-8,·
CN(C)CCCOc1nn(Cc2ccccc2)c2ccccc12,0.6,·,·,-1,·
Cc1ccc(NC(=S)Nc2ccccn2)cc1C,1.4,·,12%,6,·
O=C1CC(N2CCN(c3ccc(S(=O)(=O)N4CCOCC4)cc3)CC2)C(=O)N1Cc1ccccc1 (stereo unspecified),3.2,11,-10%,-8,14
CCOc1ccc(S(=O)(=O)N(C)c2ccc(OCC(=O)N3c4ccc(C)cc4C4CN(C)CCC43)cc2)cc1 (stereo unspecified),7.1,·,5%,52,-21
O=c1cc(N2CCc3ccccc3C2)[nH]c(=O)n1-c1ccc(Cl)cc1,-2.3,-22,7%,?,-7
COc1ccc(C)cc1NC(=O)C1CCN(S(=O)(=O)c2c(C)noc2C)CC1,0.0,·,·,4,·
CCOC(=O)/C(=C/c1ccc(F)cc1)NC(C)=O,-3.4,-38,-5%,-1,-2
CCn1c(Cc2c(C)[nH]c3ccccc23)nnc1SCC(=O)NCc1ccco1,-4.6,1,-1%,-4,7
CCCCCn1c(=S)[nH]c2ncccc2c1=O,-1.6,-33,·,8,0
CC(C)CN(Cc1c(O)ccc2ccccc12)CC(C)C,-6.9,·,3%,4,6
COc1cc([N+](=O)[O-])ccc1NC(=O)CSc1nc2ccccc2n1-c1ccccc1,0.6,-10,-5%,7,-12

Copied from the list.
COc1ccccc1NC(=O)c1cccc(NC(=O)c2ccco2)c1 | YopH PTP inh = -39
NC(=NCCc1c[nH]c2ccccc12)NS(=O)(=O)c1cc(F)ccc1F | Mtb bLac sens = 36
COc1ccc(C)cc1NC(=O)C1CCN(S(=O)(=O)c2c(C)noc2C)CC1 | Mtb bLac sens = 4
Cc1ccc(NC(=S)Nc2ccccn2)cc1C | Mtb growth = 12%
O=C1CC(N2CCN(c3ccc(S(=O)(=O)N4CCOCC4)cc3)CC2)C(=O)N1Cc1ccccc1 (stereo unspecified) | RecA intein inh = 3.2

(next part)
canonical_smiles,RecA intein inh,YopH PTP inh,Mtb growth,Mtb bLac sens,Arbovirus anti
CCOC(=O)N1CCN(S(=O)(=O)c2ccc3c(c2)CCN3C(=O)C2CC2)CC1,3.0,-47,5%,-3,8
CN(c1ccc(OCC(=O)N2CCN(C/C=C/c3ccccc3)CC2)cc1)S(=O)(=O)c1cccs1,2.3,·,-6%,35,·
COc1ccc(CCNC(=O)COc2ccc(C)nc2[N+](=O)[O-])cc1,-0.4,·,1%,-2,2
COC(=O)c1sc(NC(=O)CSc2nnc(C(C)C)n2C)nc1C,-1.0,-15,-4%,-4,6
Cc1cccc(C)c1NC(=O)CN1CCc2ccccc2C1,-1.3,·,·,-4,·
COc1ccc(-c2cc(C(F)(F)F)n3nc(C(=O)O)cc3n2)cc1OC,-1.8,-38,-3%,-2,12
C/C(=C\c1ccc(C)o1)C(=O)c1c(C)cc(C)[nH]c1=O,-4.4,·,1%,-7,9
O=C(CSCc1ccccc1Br)N/N=C/c1ccc2c(c1)OCO2,8.1,-7,-4%,-10,-22
COc1cc(C(=O)NCCCNc2nc3cc(C)cc(C)c3cc2C#N)cc(OC)c1OC,-13,0,-8%,5,0
CCN(Cc1ccccc1)C(=O)CN1C(=S)NC(C)(C)CC1C (stereo unspecified),-1.0,-4,11%,-1,14
CC(C)C(=O)NC(=S)Nc1ccccn1,1.2,-29,-10%,1,3
COc1cc(O)c2c(=O)cc(-c3ccccc3)oc2c1,2.0,·,8%,-5,-4
Cc1c(CC(=O)N2C[C@H]3C[C@@H](C2)c2cccc(=O)n2C3)c(=O)oc2cc3occ(C(C)(C)C)c3cc12,-0.1,·,·,-3,·
Cc1cc(C)cc(NC(=O)Nc2ccc3c(c2)CCC3)c1,0.9,·,·,-12,·
CCC(=O)N(Cc1ccco1)c1nc(-c2ccc(OC)cc2)cs1,-0.2,-36,-7%,-4,-13
O=C(CCc1ccccc1F)N1CCN(c2ccccc2)CC1,-0.9,·,·,-3,·
CCOCC(=O)Nc1cc(C(=O)Nc2ccc(F)cc2)ccc1Cl,0.5,·,-2%,4,-6
CCOC(=O)[C@@H]1[C@H]2COc3ccc(Br)cc3[C@@H]2N2C(=O)N(c3ccc(F)cc3)C(=O)[C@]12C,6.5,·,·,-8,·
CC(SCc1ccccc1)C(=O)N/N=C/c1ccc2c(c1)OCO2 (stereo unspecified),3.6,-2,-4%,7,-4
COc1ccc(N2CCN(C(CNC(=O)C(=O)NC3CC3)c3ccco3)CC2)cc1 (stereo unspecified),-3.0,·,·,-3,·
Cc1ccccc1NC(=O)c1ccccc1NC(=O)c1ccco1,1.4,-13,3%,-4,-1
CCN1CCN(CCCNC(=O)c2ccc3c(c2)N(Cc2ccc(C)cc2)CCS3)CC1,-10,·,·,-1,·
Nc1ccc(CCn2ccnc2)cc1,6.7,·,·,-8,·
CC1CCN(S(=O)(=O)N2CCCC(C(=O)NCc3ccc(F)cc3)C2)CC1 (stereo unspecified),1.3,·,·,0,·
CN(C)C(=O)CSc1nc2ccc(N3C(=O)c4ccccc4C3=O)cc2s1,-1.6,·,-1%,-10,·
CC(C)(C)c1ccc(C(=O)OCC(=O)Nc2sc3c(c2C#N)CCC3)cc1,-0.8,-5,0%,-3,-10
COc1ccccc1OCc1ccc(C(=O)NCc2ccco2)o1,4.5,-28,11%,11,-3
C[C@@]12CCC=C[C@H]1[C@H](c1ccc(/C=C/c3ccccc3)cc1F)N(Cc1ccccc1)C2=O,28,·,31%,10,·
CN(C)S(=O)(=O)c1ccc(C(=O)NCC(=O)N/N=C/c2cccs2)cc1,·,·,-3%,8,0
Cc1cc(C(=O)c2ccc3ccccc3c2)c(C)o1,8.1,·,·,1,·
CC1(C)SC(=Nc2ccccc2)N(S(=O)(=O)c2ccccc2)C1=O,0.8,-10,-1%,3,6
COc1ccc(CNC(=S)Nc2ccc(Br)cc2)cc1,0.6,·,·,4,·
CC(NC(=O)c1cncc(Br)c1)c1ccc(S(N)(=O)=O)cc1 (stereo unspecified),-0.5,-41,-2%,-4,3
CN(C)S(=O)(=O)c1ccc(Cl)c(C(=O)Nc2cccc([N+](=O)[O-])c2)c1,-1.5,·,8%,-2,5
O=C(CO/N=C/c1ccc(OC(F)F)cc1)NCc1cccs1,-0.3,-41,14%,7,-3
C=CCn1c(C)nnc1SCC(=O)Nc1nc(C)c(C(=O)N(C)C)s1,-5.6,·,·,-4,·
COc1cc(-c2nnc(SCc3cccnc3)n2C)cc(OC)c1O,-3.7,-48,-6%,1,6
CCOC(=O)c1ccc(NC(=O)c2nc[nH]c2C(=O)N[C@@H](C)C(=O)OC(C)(C)C)cc1,-1.7,·,62%,99,·
CCC1CCCCN1C(=O)CSc1nnc(CNC(=O)c2cc(OC)c(OC)c(OC)c2)o1 (stereo unspecified),-3.0,1,-11%,-2,6
CC(C)NC(=S)N/N=C/C1=CCC2CC1C2(C)C (stereo unspecified),3.9,-18,16%,22,28

A section of the results above, as a working copy:
canonical_smiles,RecA intein inh,YopH PTP inh,Mtb growth,Mtb bLac sens,Arbovirus anti
CCOC(=O)c1ccc(NC(=O)c2nc[nH]c2C(=O)N[C@@H](C)C(=O)OC(C)(C)C)cc1,-1.7,·,62%,99,·
CCC1CCCCN1C(=O)CSc1nnc(CNC(=O)c2cc(OC)c(OC)c(OC)c2)o1 (stereo unspecified),-3.0,1,-11%,-2,6
CC(C)NC(=S)N/N=C/C1=CCC2CC1C2(C)C (stereo unspecified),3.9,-18,16%,22,28

Profiles from above. Order of screens: RecA intein inh	YopH PTP inh	Mtb growth	Mtb bLac sens	Arbovirus anti
COc1ccccc1OCc1ccc(C(=O)NCc2ccco2)o1 is listed as 4.5	-28	11%	11	-3
CN(C)S(=O)(=O)c1ccc(C(=O)NCC(=O)N/N=C/c2cccs2)cc1 is listed as ·	·	-3%	8	0
CC1(C)SC(=Nc2ccccc2)N(S(=O)(=O)c2ccccc2)C1=O is listed as 0.8	-10	-1%	3	6
COc1cc(-c2nnc(SCc3cccnc3)n2C)cc(OC)c1O is listed as -3.7	-48	-6%	1	6
COc1ccc(CNC(=S)Nc2ccc(Br)cc2)cc1 is listed as 0.6	·	·	4	·

Continued:
canonical_smiles,RecA intein inh,YopH PTP inh,Mtb growth,Mtb bLac sens,Arbovirus anti
CC(=O)Nc1ccc(NC(=O)CSc2nnc(C)c(=O)n2N)cc1,-3.9,·,-3%,-5,·
COc1cccc(NC(=O)NC2CCCCCCC2)c1,3.2,·,·,100,·
CCCc1cc(=O)[nH]c(SCCOc2ccc(OCC)cc2)n1,0.6,-31,-21%,-1,2
O=C1OCCC1Sc1nc2ccccc2c(=O)n1Cc1ccccc1 (stereo unspecified),9.5,·,-6%,-1,2
CCOC(=O)Nc1sc(=S)n(C)c1C,-1.0,3,7%,-4,-6
O=P(Cc1ccncc1)(c1ccccc1)c1ccccc1,1.1,-25,-5%,-6,9
CC/C(O)=C1\C(=O)CC(C)(C)CC1=NCCc1nc2ccccc2[nH]1,2.3,·,-5%,-9,8
CCOC(=O)CSc1nc(C)cc(C)n1,-9.2,6,-11%,1,4
COC(=O)c1c(NC(=O)CN2C(=O)NC3(CCc4ccccc4C3)C2=O)sc2c1CCCCC2 (stereo unspecified),·,6,2%,0,-8
Cn1c(CC2C(=O)Nc3ccc(Br)cc32)nc2ccccc2c1=O (stereo unspecified),4.4,4,·,57,2
Clc1ccc(-n2nnnc2SCc2c(-c3ccccc3)nc3sccn23)cc1,2.2,-39,6%,-2,-3
CC(C)c1ccc(NS(=O)(=O)c2ccc(Cl)nc2)cc1,0.8,-22,7%,0,10
N=C1/C(=C\c2coc3ccccc3c2=O)C(=O)N=C2SC=CN12,-50,·,·,-1,·
COc1cc2c(cc1OC)CN(C(=O)COc1ccc(C#N)cc1)CC2,1.5,-37,8%,-6,7

3 structures out of the list, sorted by count of non-hydrogen atoms, falling.
canonical_smiles,RecA intein inh,YopH PTP inh,Mtb growth,Mtb bLac sens,Arbovirus anti
CCOC(=O)c1ccc(NC(=O)c2nc[nH]c2C(=O)N[C@@H](C)C(=O)OC(C)(C)C)cc1,-1.7,·,62%,99,·
CN(C)S(=O)(=O)c1ccc(C(=O)NCC(=O)N/N=C/c2cccs2)cc1,·,·,-3%,8,0
O=C(CCc1ccccc1F)N1CCN(c2ccccc2)CC1,-0.9,·,·,-3,·

This is a subset. The share of hits here may be higher or lower than overall.
